PINK1 modulator: modulators of PINK1 expression. PINK1 immunofluorescence, high-content cytometry, 24 h. Potency, µM (highest dose often 76.6 µM), for the others: at the highest dose activation (PINK1 increase), hits mostly activators. 410,000 compounds, 0.2% hits. AID 624263; active = well fitted activation curve with a large enough effect; inconclusive = small, poorly fitted or top-dose-only effect; inactive = flat fitted curve, though single readings scatter; cell line not stated here;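 note: % of control where 0% means no effect; nearly all actives have a fitted effect of over 65% in size; a mitochondrial uncoupler was the plate control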
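Cells are seeded, rested 12 hours, then given compound at five concentrations or DMSO for 24 hours. After fixation, blocking and antibody staining, PINK1 amount and mitochondrial localization are scored; CCCP serves as control.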
Starred values were filed as active, the others as inactive. Potency is the fitted concentration of half-maximal effect. This is a subset, so the mix of outcomes need not match the whole.

Start of the data: the first 17 entries, ahead of the listing:
smiles | PINK1 modulator
C=CC(C1=CC(=O)C(OC)=CC1=O)c1ccc(OC)cc1 (stereo not given) | 5.6%
Cc1cccc(CNc2cc(-c3cccnc3)ncn2)c1 | 4.3%
Cc1ncoc1C(=O)NCc1nc(-c2cccc(NC(=O)c3ccccn3)c2)oc1C | -0.1%
CN(C)c1ncnc2ccc(-c3cccc(NS(C)(=O)=O)c3)cc12 | 0.0%
CCC1CN(CCNC(=O)c2cccc(N3CCCC3=O)c2)Cc2cc(OC)ccc2O1 (stereo not given) | -1.0%
COC(=O)N1CCC2(CCN(C(=O)NC(C)C)CC2)CC1 | -1.1%
O=C(c1ccco1)N1CCC[C@@]2(CCN(c3cccc(-c4ccccc4)c3)C2)C1 | -0.1%
N#Cc1cccc(NC(=O)N2CCCC3(CCN(C(=O)c4ccco4)CC3)C2)c1 | 0.5%
Cc1c(C(=O)N(C)CC2CCCN(C)C2)cnn1-c1nccc(-c2ccco2)n1 (stereo not given) | -0.1%
O=c1c(-c2cc(F)cc(F)c2)nc2cnc(N3CCNCC3)nc2n1Cc1ccc(F)cc1 | 3.1%
CN(C)c1ncc2nc(-c3cccs3)c(=O)n(-c3ccccc3)c2n1 | 40µM*
COc1ccc(S[C@@H]2C[C@@H](C(=O)Nc3ccc4nccnc4c3)N(C3Cc4ccccc4C3)C2)cc1 | 0.7%
CCCCC/C=C\C/C=C\C/C=C\C/C=C\CCCC(=O)O | 2.1%
COc1cc(CN2CCC3(CC2)c2ccccc2[C@@H](NC(=O)c2ccccc2OC)[C@@H]3O)ccc1F | -0.2%
CS(=O)(=O)N1CCC2(CCCN(Cc3ccc(C#N)cc3)C2)CC1 | 0.1%
CS(=O)(=O)N1CCC2(CC1)CN(Cc1nccs1)C2 | -0.8%
COc1cccc(CN2CCCC(c3nc(-c4ccncc4)ncc3-c3ccccc3)C2)c1O (stereo not given) | 3.6%

All compounds of this part (from the top)
smiles | PINK1 modulator
C=CC(C1=CC(=O)C(OC)=CC1=O)c1ccc(OC)cc1 (stereo not given) | 5.6%
Cc1cccc(CNc2cc(-c3cccnc3)ncn2)c1 | 4.3%
Cc1ncoc1C(=O)NCc1nc(-c2cccc(NC(=O)c3ccccn3)c2)oc1C | -0.1%
CN(C)c1ncnc2ccc(-c3cccc(NS(C)(=O)=O)c3)cc12 | 0.0%
CCC1CN(CCNC(=O)c2cccc(N3CCCC3=O)c2)Cc2cc(OC)ccc2O1 (stereo not given) | -1.0%
COC(=O)N1CCC2(CCN(C(=O)NC(C)C)CC2)CC1 | -1.1%
O=C(c1ccco1)N1CCC[C@@]2(CCN(c3cccc(-c4ccccc4)c3)C2)C1 | -0.1%
N#Cc1cccc(NC(=O)N2CCCC3(CCN(C(=O)c4ccco4)CC3)C2)c1 | 0.5%
Cc1c(C(=O)N(C)CC2CCCN(C)C2)cnn1-c1nccc(-c2ccco2)n1 (stereo not given) | -0.1%
O=c1c(-c2cc(F)cc(F)c2)nc2cnc(N3CCNCC3)nc2n1Cc1ccc(F)cc1 | 3.1%
CN(C)c1ncc2nc(-c3cccs3)c(=O)n(-c3ccccc3)c2n1 | 40µM*
COc1ccc(S[C@@H]2C[C@@H](C(=O)Nc3ccc4nccnc4c3)N(C3Cc4ccccc4C3)C2)cc1 | 0.7%
CCCCC/C=C\C/C=C\C/C=C\C/C=C\CCCC(=O)O | 2.1%
COc1cc(CN2CCC3(CC2)c2ccccc2[C@@H](NC(=O)c2ccccc2OC)[C@@H]3O)ccc1F | -0.2%
CS(=O)(=O)N1CCC2(CCCN(Cc3ccc(C#N)cc3)C2)CC1 | 0.1%
CS(=O)(=O)N1CCC2(CC1)CN(Cc1nccs1)C2 | -0.8%
COc1cccc(CN2CCCC(c3nc(-c4ccncc4)ncc3-c3ccccc3)C2)c1O (stereo not given) | 3.6%
COc1ccccc1N1CCN(c2nc(CNC(=O)c3ccc4c(c3)OCO4)nc3ccccc23)CC1 | -0.8%
CS(=O)(=O)N1CCC2(CCN(Cc3nccs3)CC2)CC1 | -0.2%
Cc1ncc2c(c1CNC(=O)c1ccc3c(c1)OCO3)CCN(C(=O)/C=C/c1ccc(Cl)cc1)C2 | 0.0%
CC(=O)OC1CC[C@@]2(C)C3=CC(=O)[C@]4(C)C(CC5OC6(OCC(C)CC6Br)C(C)C54)C3CC[C@H]2C1 (stereo not given in full) | -0.7%
O=C(Nc1cccc(F)c1)N1CC[C@@]2(CCCN(C(=O)c3csnn3)C2)C1 | -0.5%
COc1cc(=O)n2c(c1C(=O)N(C)Cc1nccs1)CCN(Cc1cc(C)cc(C)c1)CC2 | 0.1%
COc1ccc2c(c1OC)OCC(c1ccc(OC)c(OC)c1OC)C2 (stereo not given) | 0.2%
Cc1cccc(C(=O)NCc2nc(-c3cccc(NC(=O)c4ccoc4C)c3)oc2C)n1 | 0.3%
N#Cc1cccc(-c2nc(Nc3ccncc3)c3ccccc3n2)c1 | 13%
COCc1c(C(=O)N2CCN(c3ccccc3)CC2)cnn1-c1nccc(-c2ccco2)n1 | 3.9%
Cn1c(=O)c(-c2cc(F)cc(F)c2)nc2cnc(N3CCNCC3)nc21 | 1.1%
CC(C)(CNC(=O)c1cnn(-c2ncc3c(n2)-c2ccccc2CCC3)c1C1CC1)N1CCOCC1 | -0.3%
O=c1c(-c2cccs2)nc2cnc(Oc3cccc(Cl)c3)nc2n1C[C@H]1CCCO1 | 0.1%
O=C(c1cnsn1)N1CCOc2ccc(CN3CCOCC3)cc2C1 | -0.8%
O=C(c1cnccn1)N1CCC2(CCCN(c3cccc(-c4ccccc4)c3)C2)CC1 | 1.9%
CCNc1ncc2nc(C)c(=O)n(CCOC)c2n1 | -0.3%
CC(NC(=O)C1CCOCC1)c1nnc2n1CCN(Cc1ccc3ccccc3c1)CC2 (stereo not given) | 0.6%
O=C(c1ccco1)N1CCC2(CC1)CN(c1ccc(-c3ccccc3)cc1)C2 | 1.5%
Cc1c(C(=O)NC(C)(C)C)sc2ncnc(NCCN(C)C)c12 | 0.0%
c1ccc2c(N3CCOCC3)nc(-c3ccoc3)nc2c1 | 2.1%
COc1ccc2c(c1)CCc1cnc(-n3ncc(C(=O)NCCCN4CCOCC4)c3C)nc1-2 | -1.1%
COC(=O)c1cn([C@H]2C[C@@H](C(=O)N3CCCCCC3)N(Cc3ccsc3)C2)nn1 | -0.9%
CS(=O)(=O)Nc1cccc(-c2nccc(-n3ccnc3)n2)c1 | -1.0%
Cc1cc(C(=O)Nc2cccc(-c3nc(CNC(=O)c4sc(C)nc4C)c(C)o3)c2)c(C)o1 | 0.2%
Cc1nc2sccn2c1CN1CCOc2ccc(CN3C[C@@H](C)O[C@@H](C)C3)cc2C1 | 0.1%
O=S(=O)(c1ccccc1)N1CCC2(CCN(c3ccncc3)CC2)CC1 | 0.3%
CN1CCC2(CC1)CCN(C(=O)c1cc(C(F)(F)F)cc(C(F)(F)F)c1)CC2 | -0.4%
FC(F)(F)c1ccccc1-c1cncnc1NCc1ccccc1 | -0.2%
COCC(=O)Nc1cc(C(=O)N2CCCCC2c2nccn2C)cc2nc(-c3ccccc3)n(C)c12 (stereo not given) | -0.7%
Cc1ncc2c(c1CNS(=O)(=O)N(C)C)CCN(C(=O)c1ccccc1F)C2 | 0.0%
Cc1ccccc1C(=O)NC(C)c1nnc2n1CCN(Cc1ccc(F)cc1)CC2 (stereo not given) | -0.1%
CN1CCN(c2ncc3nc(-c4cccs4)c(=O)n(CCC#N)c3n2)CC1 | -0.2%
CN(Cc1ccon1)C(=O)c1cnn(-c2nccc(-c3ccc4c(c3)OCO4)n2)c1C1CC1 | 1.0%
N#Cc1cccc(-c2cncnc2NCc2cccnc2)c1 | 0.6%
Cc1c(C(=O)NCC2CC2)sc2ncnc(NCCN3CCCCC3)c12 | 1.3%
O=S(=O)(c1ccccc1)N1CCC[C@@]2(CCN(c3cccc(-c4ccccc4)c3)C2)C1 | 0.5%
COC(=O)N1CCC2(CC1)CCN(c1ncccn1)CC2 | -1.0%
c1ccc2c(NC3CC3)nc(-c3ccoc3)nc2c1 | 2.3%
CO[C@H]1[C@H](NC(=O)c2ccncc2)c2ccccc2C12CCN(C(=O)c1ccoc1)CC2 | -0.7%
COC(=O)[C@@H]1CCCN1Cc1ccc2c(c1)CN(Cc1ccc(OC)c(C)c1)CCO2 | -0.8%
Cc1nc2cnc(N(C)C)nc2n(C2CC2)c1=O | -0.8%
N#Cc1cccc(NC(=O)N2CCCC3(CCN(C(=O)c4cc(C(F)(F)F)cc(C(F)(F)F)c4)CC3)C2)c1 | -0.4%
COCCn1c(=O)c(-c2cc(F)cc(F)c2)nc2cnc(OCc3ccccc3)nc21 | 2.8%

(next part)
smiles | PINK1 modulator
CC(C)(C)NCC(O)c1ccc(O)c(CO)c1 (stereo not given) | -1.5%
CS(=O)(=O)Nc1cccc(-c2ccc3ncnc(NCCN4CCOCC4)c3c2)c1 | -0.4%
COCc1ccc(CN2Cc3ccccc3OC(c3ccccc3F)C2)o1 (stereo not given) | -0.6%
CC1COC2=C1C(=O)C(=O)c1c2ccc2c1CCCC2(C)C (stereo not given) | 1.1%
Cc1noc(C)c1-c1cc(NC2CCNCC2)ncn1 | 0.1%
O=C(c1c(F)cccc1F)N1CCN(S(=O)(=O)c2ccc3c(c2)OCCO3)CC1 | 1.0%
CCCS(=O)(=O)NCc1c(C)ncc2c1CCN(C(=O)c1ccc3[nH]c4c(c3c1)CCCC4)C2 | 2.7%
COc1ccccc1-c1ccc2ncnc(NC3CC3)c2c1 | 1.6%
Clc1ccccc1-c1nccc(NCc2ccccc2)n1 | 1.2%
Cc1cnc(C)c(-c2cc(F)cc3c2OC(CNC(=O)Cc2c(C)noc2C)C3)n1 (stereo not given) | -0.2%
Cc1cccc(C(=O)N[C@H]2CC[C@@H](n3cc(C(=O)N4CCCC4)nn3)CC2)c1 | 0.4%
O=C(Nc1cccc(F)c1)N1CC2(CCN(C(=O)c3cnccn3)CC2)C1 | -1.4%
COc1cccc(C(=O)NCC2Cc3cccc(-c4ncccn4)c3O2)c1OC (stereo not given) | 1.2%
O=C(Cn1cc(CNC(=O)C2CCCCC2)nn1)Nc1cc(C(F)(F)F)ccc1Cl | 0.4%
Cc1ncc2c(c1CNC(=O)c1ccccc1F)CCN(C(=O)c1ccc3c(c1)OCCO3)C2 | 4.9%
O=C(c1cnccn1)N1CCC2(CC1)CN(Cc1cc(C(F)(F)F)cc(C(F)(F)F)c1)C2 | 0.1%

Screens: PubChem BioAssay, National Center for Advancing Translational Sciences (NCATS)
